# Bioassay records as filed in PubChem BioAssay.
# Mtb hypoxia rep – reduces hypoxia-regulated biosensor signal in M. tuberculosis | M. tuberculosis hypoxia-regulated fluorescent reporter, fluorescence | fluorescence inhibition, % (no concentration beside the values) | hit rate 0.1% among 300,000 | AID 1159583;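 active = 35 to 45% if threefold the growth effect, above 45% if 1.5-fold the growth effect; inactive = the rest, general growth blockers included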;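 note: wells of about 50 µL received 100 nL stock; 0% = vehicle wells and 100% = reference inhibitor wells; whole bacteria with a GFP reporter of the hypoxia response; strong numbers were not always called active; many hits fall short of the cut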
# Sa RN4220 lethal – kills Staphylococcus aureus RN4220. S. aureus RN4220 growth, OD600, 16 h. hit rate 0.33% among 330,000. inhibition, % (concentration not given with the values);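 active = z-score of -3 or lower and OD600 up to 0.18 on both plates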;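 note: plate controls were untreated cells for no effect and reference antibiotic for full effect; stock transfer was 100 nL into about 80 µL; one replicate is shown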
# BJeLR lethal – kills HRASV12-expressing BJeLR cells | hit rate 0.17% among 300,000 | BJeLR (HRASV12) viability, CellTiter-Glo ATP luminescence, 48 h; reference of the scale not given here | inhibition, % (test concentration not listed);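 active = replicate mean above 50%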;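 note: 50 nL library stock added to about 25 µL; numbers are from one replicate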
# ugtP null kill – compounds lethal to S. aureus RN4220 ugtP deletion mutant; OD600 growth, 16 h; some inactives read as strong as hits; growth inhibition, % (test concentration not listed); hit rate 0.54% among 330,000; AID 1259309;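 active = z-score under -3 and OD600 up to 0.15 on both plates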;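 note: plate controls were untreated wells for no effect and antibiotic for full effect; wells of about 80 µL received 100 nL stock; the first replicate is given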
# Autofluor counter – compound fluorescence in toxin protease inhibitor counterscreen. compound autofluorescence counterscreen, microsphere flow cytometry; hits give high values. fluorescence intensity (test concentration not listed). AID 624483. hit rate 3.1% among 360,000;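 active = at least 3 SD above the mean of all compounds, about 16000 in these data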;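 note: 100 nL of 1 mM stock went into each well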
# PrP 5UTR inh – inhibition of PrP 5' UTR reporter expression; cell-based PrP 5' UTR mRNA reporter, plate reader; inhibition, % (test concentration not listed); hit rate 0.35% among 340,000; AID 488862;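 active = every replicate at 50% or more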;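 note: 0 = median of the neutral control wells; tested in H4 reporter cells; numbers are from one replicate; inactives centre near -14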
# Mtb hypoxia rep growth – further read-out of Mtb hypoxia rep, marked with its call; growth inhibition, %; measured here: M. tuberculosis growth (absorbance);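 0% = vehicle and 100% = reference antibiotic; read after six days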
# Starred values were filed as active, the others as inactive; / = not tested or not shown; & = joins results of further samples.
# The line under a structure holds: Mtb hypoxia rep	Mtb hypoxia rep growth	Sa RN4220 lethal	BJeLR lethal	ugtP null kill	Autofluor counter	PrP 5UTR inh
COc1ccc(C(=O)c2c(C)c(CCC#N)n3ccccc23)c(OC)c1
 : 6	10	2.8	-15	14	4494	-15
S=C(NCC1CCCO1)Nc1ccc(Cl)cc1 (centres undefined)
 : 8	-1	0.7	3	4	2695	-20
COc1ccc(CN(C)CC(=O)Nc2ccccc2-c2ccccc2)c(OC)c1
 : 15	8	-2.1	-6	11	4785	-19
CCCCCCCCC(=O)N/N=C(\C)c1ccco1
 : /	/	/	5	/	10948	-16
Cc1ccc(CN(C)C(=O)c2cccc(S(=O)(=O)N3CCCC3)c2)cc1
 : 9	15	2.4	/	3	8551	-9
COc1ccc(CNC(=O)Nc2ccc(C)cc2)cc1
 : /	/	8.9	7	2	4482	-50
Cc1ccc2[nH]c3c(N4CCc5ccccc5C4)ncnc3c2c1
 : /	/	/	19	/	5380	-39
O=C(COC(=O)c1cnccn1)NC1CCCc2ccccc21 (centres undefined)
 : 4	5	3.1	/	0	8540	-12
COc1cccc(NC(=S)NC(C)c2ccc(OC)c(OC)c2)c1 (centres undefined)
 : 14	11	1.3	/	13	4720	-1
COc1cc(OC)cc(C(C(=O)NCc2ccccc2)N(Cc2ccco2)C(=O)c2ccno2)c1 (centres undefined)
 : /	/	-1.3	-2	6	2282	-22
COc1cc(NC(=O)C(C)N2CCN(C(=O)C3CC3)CC2)cc(OC)c1 (centres undefined)
 : 6	4	3.5	/	6	3718	-8
N#CCC1c2ccccc2CCN1C(=O)Nc1ccc(Cl)cc1 (centres undefined)
 : 9	2	-4.2	5	-8	9737	/
O=C1/C(=C\c2cccc(O)c2O)SC(=S)N1Cc1ccccc1
 : /	/	/	-10	/	3006	-19
COc1ccccc1N/C(=N/S(=O)(=O)c1ccc(C)cc1)c1ccccc1
 : 15	2	2.3	8	6	9899	-12
O=C(c1cccn2c(=O)c3cc(Cl)ccc3nc12)N1CCC2(CC1)OCCO2
 : 4	8	2.7	-12	0	7986	-28
CCOc1ccccc1N1CCN(CC(=O)Nc2nc(C)c(C(=O)N(C)C)s2)CC1
 : 9	-9	-1.9	-7	4	4365	-14
COc1ccc2c(c1)CC(C(=O)Nc1ccc(Cl)cc1)/C(=N/O)O2 (centres undefined)
 : /	/	/	8	/	4251	-11
O=C(CNC(=S)N(Cc1ccc(F)cc1)C1CCCCC1)NCC1CCCO1 (centres undefined)
 : -2	9	2.3	-1	7	4413	-17
Cc1nc2ccc(NC(=S)NC3CC3)cc2nc1C
 : 7	-3	4.7	-6	12	2483	-31
N#Cc1ccc(/C=N/NC(=O)c2ccccc2F)cc1
 : /	/	/	0	/	2447	-4
O=C(Nc1nnc(SCc2ccc(F)cc2)s1)c1cccnc1Cl
 : 8	8	-5.7	6	5	4339	-10
Cc1cc(C)n2cc(CSc3nnnn3-c3ccccc3)nc2n1
 : -6	1	4.0	-1	-2	9479	7
O=C(CSc1ccccc1)N1CCN(c2ccccn2)CC1
 : 12	10	3.6	-1	7	2539	-35
Cc1cc(N/N=C\c2ccc(Br)cc2)nc(-n2nc(C)cc2C)n1
 : /	/	/	4	/	4435	18
Cc1occc1-c1nnc(SCc2nnc(-c3ccc(Cl)cc3)o2)n1C
 : 9	6	6.7	2	-1	4585	-21
CCN1CCN(c2ccc(NC(=O)c3ccc4c(c3)OCCO4)cc2C)CC1
 : 9	7	0.3	/	13	4964	-39
Cc1c(Br)cc(C(=O)O)c(C)c1C
 : 6	4	9.9	-5	-5	5237	-5
CCn1c(SCC(=O)c2cccs2)nnc1-c1cccs1
 : 13	14	16	-4	5	10824	-23
O=C(C1=C[C@H](c2csc3ccccc23)C[C@H](OCc2ccc(CO)cc2)O1)N1CCOCC1
 : /	/	/	0	/	4164	-30
COc1ccc(C=NNc2nc3ccccc3c(=O)n2-c2ccccc2)cc1OC
 : 3	9	3.8	/	9	/	/
CC1CCc2nn(CC(=O)NCCCN3CCCC3=O)cc2C1 (centres undefined)
 : /	/	-0.7	4	8	5921	-12
COc1ccc(Cn2c(=O)[nH]c3cc(C(=O)NC4CCN(Cc5ccccc5)CC4)ccc32)cc1
 : 3	14	0.6	10	0	2323	-25
Cc1nc(SCC(=O)Nc2cccc(C(=O)O)c2)n[nH]1
 : 10	4	1.0	2	8	4971	-12
Cc1cc(C)nc(N/N=C/c2ccccc2)n1
 : /	/	/	0	/	10430	-35
Cc1ccc(S(=O)(=O)N(Cc2n[nH]c(=S)n2-c2ccccc2)c2ccccc2)cc1
 : -2	18	1.7	-3	0	4600	-6
CCc1nc2cccnc2n1-c1ccc(C(=O)O)cc1
 : 5	5	4.1	-3	9	4013	-29
C(=N\n1cnnc1)/c1ccc(OCc2cccc3ccccc23)cc1
 : /	/	/	4	/	2808	-44
N#Cc1nc(COc2ccccc2Cl)oc1NCc1cccnc1
 : -2	7	7.8	-1	-12	9583	-16
Cc1cc(-c2cccs2)c2c(n1)sc1c(=O)[nH]c(=O)[nH]c12
 : -4	-10	4.6	-6	0	7512	-7
CC(C)(C)OC(=O)NCCCCC(NC(=O)c1nc[nH]c1C(=O)NC(c1ccccc1)c1ccccc1)C(=O)OC(C)(C)C (centres undefined)
 : -5	-3	0.4	/	6	/	/
O=C(NCCCN1CCOCC1)C(=O)NN=Cc1c2ccccc2cc2ccccc12
 : 4	10	3.7	/	6	/	/
c1ccc(P(c2ccccn2)c2ccccn2)cc1
 : 6	4	4.3	-1	13	5033	-9
COc1ccccc1OCCC(=O)OCC(=O)Nc1cc(S(=O)(=O)N2CCOCC2)ccc1Cl
 : -9	8	-1.5	7	-1	4161	-24
COc1cccc2cc(C(=O)C3=C(O)C(=O)N(CCN4CCOCC4)C3c3ccc(Cl)cc3)oc12 (centres undefined)
 : -9	8	7.1	6	-2	4604	-4
CCSc1nnc(NC(=O)C(Cc2ccccc2)n2cccc2)s1 (centres undefined)
 : 6	4	-1.7	9	9	5811	-11
N#Cc1c2n(c(=S)n(-c3ccccn3)c1=O)CCCCC2
 : -3	3	7.5	2	13	3292	-18
COC(=O)C(C)Oc1ccc2cc(-c3ccccc3)c(=O)oc2c1 (centres undefined)
 : 5	6	3.1	-3	5	5976	-18
COC(=O)c1cc(-c2cccc([N+](=O)[O-])c2)c2c(=O)[nH]c(=O)n(C)c2n1
 : -12	8	0.2	-7	4	3667	-4
Clc1ncccc1OCc1ccccc1
 : -4	-1	4.8	-6	7	4227	-55
Cc1cn(C(=O)CN2C(=O)c3ccccc3C2=O)c(C)n1
 : -1	2	0.2	3	2	4088	1
Cc1ccc(-c2csc3nnc(SCC(=O)NCc4ccco4)n23)cc1
 : 6	1	6.0	-3	10	16787*	-20
O=C(Nc1nc2ccccc2[nH]1)c1ccccc1F
 : -3	-3	7.1	85*	-1	11215	85*
Cc1cccc(NC(=O)CSc2nnc(-c3ccco3)n2CC2CCCO2)n1 (centres undefined)
 : 3	-6	18	-12	8	3662	-8
CCCC1=Nc2cc(C(=O)N3CCC(C(=O)OCC)CC3)ccc2Sc2ccccc21
 : 2	5	1.2	0	-6	6246	-18
Cc1nc2ccccc2n1CC(=O)NCCN1CCCC1
 : 11	1	2.6	-2	-3	9872	-21
CCSc1nc(C(F)(F)F)cc(=O)n1-c1ccccc1
 : 4	2	1.9	-12	9	20108*	-17
CCc1ccc(Cn2nnc(C(=O)Nc3cccc(C)c3)c2N)cc1
 : /	/	0.3	4	-3	6346	-34
COC(=O)c1sccc1-n1cccc1C(=O)NCc1ccccc1
 : /	/	3.8	-1	10	2570	-15
CCC(Oc1ccc2c(=O)c(-c3ccccc3OC)coc2c1)C(=O)OCc1ccccc1 (centres undefined)
 : 10	6	8.6	2	0	2023	-11
O=C(NNC(=S)Nc1ccc(Br)cc1Cl)c1ccco1
 : 20	16	8.6	1	11	9192	-42

# 2 successive entries from above, quoted:
# The line under a structure holds: Mtb hypoxia rep	Mtb hypoxia rep growth	Sa RN4220 lethal	BJeLR lethal	ugtP null kill	Autofluor counter	PrP 5UTR inh
COC(=O)C(C)Oc1ccc2cc(-c3ccccc3)c(=O)oc2c1 (centres undefined)
 : 5	6	3.1	-3	5	5976	-18
COC(=O)c1cc(-c2cccc([N+](=O)[O-])c2)c2c(=O)[nH]c(=O)n(C)c2n1
 : -12	8	0.2	-7	4	3667	-4

# The results go on:
# The line under a structure holds: Mtb hypoxia rep	Mtb hypoxia rep growth	Sa RN4220 lethal	BJeLR lethal	ugtP null kill	Autofluor counter	PrP 5UTR inh
CCN(CC)c1ccc(S(=O)(=O)N2CCOCC2)cc1NS(C)(=O)=O
 : 1	5	0.0	2	-6	4339	-11
O=C(Cc1ccc(Br)cc1)Nc1ccc(S(=O)(=O)NCC2CCCO2)cc1 (centres undefined)
 : 13	10	5.2	-7	-1	5055	-17
COc1ccc(C(=O)COC(=O)CN2C(=O)C3C4C=CC(C4)C3C2=O)cc1 (centres undefined)
 : /	/	-3.4	7	-3	4750	-20
O=C(O)c1cccc(CN2C(=O)SC(Nc3cccc4ccccc34)C2=O)c1 (centres undefined)
 : 13	2	1.8	12	8	4457	-36
CC(C)[C@H](NC(=O)N1CCn2c1nc1ccccc12)C(=O)N[C@@H](Cc1ccccc1)C(=O)O
 : /	/	0.3	9	-2	4808	-11
Cc1ccc(-c2ccc(=O)n(CCC(=O)N3CCN(c4ccccc4)CC3)n2)cc1
 : 6	-2	2.4	2	2	2980	-7
CCc1ccccc1N(C)S(=O)(=O)c1cc(-c2cc(C)no2)ccc1OC
 : 9	4	6.5	4	19	5896	-8
NC(=O)Cn1cc(C=C2C(=O)NC(=O)NC2=O)c2ccccc21
 : 9	0	-3.1	1	4	2839	-28
O=C(Nc1cccc(NC(=O)c2cccs2)c1)c1ccc([N+](=O)[O-])o1
 : 22	16	28	13	34	5925	-8
COc1ccccc1NS(=O)(=O)c1cc(C(=O)N2CCCC2)ccc1C
 : -1	5	7.3	/	3	/	-13
O=c1c2ccccc2c(-c2ccccc2)nn1-c1ccc(Cl)c(Cl)c1
 : 5	10	-9.9	2	0	4309	-62
COc1cccc(C(=O)NC(=S)NCc2ccco2)c1
 : 17	7	3.4	4	-4	2019	-5
O=C(O)COc1ccc(/C=N/NC(=O)c2ccccc2Br)cc1
 : /	/	/	3	/	4234	-22
CCc1nc(C)cn1S(=O)(=O)c1cc(C)c(OC)c(C)c1C
 : 4	5	2.6	28	-12	11186	-16
COc1ccc(OC)c(/C=N/NC(=O)CCc2n[nH]c(=O)[nH]c2=O)c1
 : /	/	/	-8	/	2095	-5
Cc1ccc(-c2nnc(-c3ccc(NC(=O)c4cccs4)cc3)o2)cc1
 : 17	10	4.4	0	-9	12545	-27
Cc1cc(C)c(OCC(=O)OCC(=O)NCCC2=CCCCC2)c(C)c1
 : -3	-11	4.0	-3	9	/	3
NC(=O)NC(=O)COC(=O)c1ccc(OC(F)F)cc1
 : 3	5	6.8	-8	2	4785	-25
CCOc1cc(N2CCOCC2)c(OCC)cc1NC(=O)c1c(-c2ccccc2)noc1C
 : -3	8	3.2	/	3	/	-19
C/C(=N\NC(=O)CCC(=O)Nc1ccc(C)c(C)c1)c1cccs1
 : /	/	/	-5	/	4166	-21
Nc1cccc(C2=Nc3cccc4cccc(c34)N2)c1
 : 4	-5	5.7	17	-5	2078	-2
C#CCNC(=O)C1=CC(c2csc3ccccc23)CC(OCc2ccc(CO)cc2)O1 (centres undefined)
 : 11&-1	3&3	4.1&5.0	/	7&10	/	/
CCN(CC)c1nc(C)nc2c1cnn2CCc1ccccc1
 : 4	12	3.2	-17	9	2801	-61
Cc1cccc(NC(=O)C2C3C=CC(O3)C2C(=O)O)c1C (centres undefined)
 : /	/	/	2	/	4263	-6
CC1(C)CC(=O)C2=C(C1)OC(N)=C(C#N)C2c1cn(-c2ccccc2)nc1-c1ccccc1 (centres undefined)
 : /	/	/	15	/	2350	-9
CCOc1ccc(C(=O)NC(=S)NCCCN2CCOCC2)cc1
 : -4	1	3.0	-3	0	4663	5
C/C(=N\NC(=O)c1cccc(Cl)c1)c1cccc(NC(=O)c2ccco2)c1
 : /	/	/	-6	/	3255	-27
CCOC(=O)c1oc2c(CN3CCN(C)CC3)c(O)ccc2c(=O)c1-c1ccccc1OC
 : 8	6	2.1	4	4	4955	-19
CCc1nnc(NC(=O)CSc2nnc(Cc3cc(=O)[nH]c(=O)[nH]3)n2-c2cccc(OC)c2)s1
 : 17	-4	2.3	1	2	2483	-5
